# AID504770: growth inhibition of E. coli YBA685, primary screen, V. cholerae RctB inhibitors; z-score (test concentration not listed); 130,000 tested, 0.27% active; E. coli YBA685 rctB-dependent plasmid, OD600 growth, 3 h; stronger effect = lower value;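 active = z-score under -2 on both plates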;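 note: wells of about 30 µL received 100 nL stock; score is relative to mean and SD of the test wells; the first replicate is given; strong numbers were not always called active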
# CapD inh: Bacillus anthracis CapD inhibitors, primary screen, biochemical, fluorescence intensity. 140,000 tested, 0.23% active. z-score (test concentration not listed). purified CapD enzyme, fluorescence intensity read-out; stronger effect = lower value; some hits fall short of the stated cut;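 active = z-score under -4 in either of two replicates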;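 note: stock transfer was 100 nL into about 40 µL; score is relative to mean and spread of the plate; one replicate is shown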
# * hit, by the source's call; · = not tested or not shown.
# The opening six compounds as a preview:
Compound | AID504770 | CapD inh
O=S(=O)(/C=C/c1ccccc1)N1CCN(CC(O)COCc2ccccc2)CC1 (centres undefined) | 0.05 | ·
FC(F)(F)c1cccc(-c2cnc(SCc3cccc(Cl)c3)nc2)c1 | · | -0.765
CCOC(=O)C1=C(N)Oc2n[nH]c(C)c2C12C(=O)Nc1ccc(Br)cc12 (centres undefined) | · | 0.355
CC(=O)Nc1ccc(NC(=O)c2ccccc2N(C)S(C)(=O)=O)cc1 | 0 | -0.455
Cc1csc(C(=O)NNC(=O)c2ccc(CSc3ccccn3)o2)c1Cl | · | -0.515
CCCc1cc(=O)oc2cc(OCC(=O)N3CCc4ccccc43)ccc12 | 1.65 | -1.14

# Main list (from the top)
Compound | AID504770 | CapD inh
O=S(=O)(/C=C/c1ccccc1)N1CCN(CC(O)COCc2ccccc2)CC1 (centres undefined) | 0.05 | ·
FC(F)(F)c1cccc(-c2cnc(SCc3cccc(Cl)c3)nc2)c1 | · | -0.765
CCOC(=O)C1=C(N)Oc2n[nH]c(C)c2C12C(=O)Nc1ccc(Br)cc12 (centres undefined) | · | 0.355
CC(=O)Nc1ccc(NC(=O)c2ccccc2N(C)S(C)(=O)=O)cc1 | 0 | -0.455
Cc1csc(C(=O)NNC(=O)c2ccc(CSc3ccccn3)o2)c1Cl | · | -0.515
CCCc1cc(=O)oc2cc(OCC(=O)N3CCc4ccccc43)ccc12 | 1.65 | -1.14
CC(=O)Nc1ccc(NC2=CC(=O)CC3(CCCCC3)C2)cc1 | 0.85 | ·
O=C(CN1C2=NCCN2c2ccccc21)c1ccc(-c2ccccc2)cc1 | · | 0.295
Cc1cc(C)c2nc3s/c(=C/c4ccc(-c5ccccc5C(=O)O)o4)c(=O)n3c2c1 | · | -0.77
COc1ccccc1N1CCN(c2ncnc3sc4c(c23)CCC4)CC1 | · | 0.13
CCCc1[nH]n(-c2ccc(F)cc2)c(=O)c1C=Nc1ccccc1C(=O)OC | · | -0.455
Cc1ccc(Sc2ccc(NC(=O)Nc3ccc(OC(F)(F)F)cc3)cn2)cc1 | · | 0.235
CC(NC(=O)CCCn1c(=O)oc2ccccc21)c1ccc(S(N)(=O)=O)cc1 (centres undefined) | 0.05 | ·
CC1=C(C)C2c3ccccc3C1C1C(=O)N(Cc3ccc(Br)cc3)C(=O)C21 (centres undefined) | · | -0.085
CCC(=O)n1nc(-c2ccccc2)nc1NCc1ccccc1 | -0.8 | 0.08
COc1ccc(C2N(C(=O)c3ccccc3)CCN2C(=O)c2ccc(C)cc2)cc1 (centres undefined) | 2.15 | -0.365
CCN1CCN(C(=O)c2cc[n+]([O-])cc2)CC1 | 0.8 | 1.08
COc1ccc(/C=C2\C=C(c3ccccc3)N(c3ccc(C)cc3Br)C2=O)cc1Br | · | -1.23
CCCCNC(=O)c1cc2c(C)cc(C)cc2[nH]1 | 0.1 | 3.79
CC(/C=C1\SC(=S)N(CCCC(=O)Nc2cc(C)on2)C1=O)=C\c1ccccc1 | 0.15 | 0.13
CN(C)c1ccc2c(C(F)(F)F)cc(-c3ccccc3)nc2c1 | 0.45 | ·
CCC(=O)Nc1c(C(N)=O)oc2ccccc12 | 0.4 | ·
Cc1ccc(-c2nnc(SCCC(=O)Nc3ccccc3)n2C)cc1 | 0.05 | -0.01
COc1ccccc1C1CCN(S(=O)(=O)c2ccc(Oc3c(Cl)cccc3[N+](=O)[O-])cc2)CC1 | · | -0.345
C(=C(c1ccccc1)c1ccccc1)N1CCC1 | · | 0.36
Cc1cc(NC2CCCCC2)nc(-c2ccccc2O)n1 | -0.55 | 15.4
O=C(C(NS(=O)(=O)c1cccc2nsnc12)c1ccccc1)N1CCc2ccccc21 (centres undefined) | 2.3 | -1.21
COC(=O)C1=C(C)NC(=O)/C1=C\c1ccc(C(=O)OC)cc1 | -1.2 | -1.54
CSC1=C(C#N)C(c2ccco2)C(C(=O)Nc2ccccc2C)=C(C)N1 (centres undefined) | 1.6 | ·
CC(Sc1nnc(-c2c[nH]c3ccccc23)n1C1CC1)C(=O)N(C)C1(C#N)CCCCC1 (centres undefined) | 0.5 | ·

# Compounds listed so far containing a cyano group (2):
Compound | AID504770 | CapD inh
CSC1=C(C#N)C(c2ccco2)C(C(=O)Nc2ccccc2C)=C(C)N1 (centres undefined) | 1.6 | ·
CC(Sc1nnc(-c2c[nH]c3ccccc23)n1C1CC1)C(=O)N(C)C1(C#N)CCCCC1 (centres undefined) | 0.5 | ·

# Further structures:
Compound | AID504770 | CapD inh
Cc1ccc(-c2nn(-c3ccccc3)c3[nH]c(=O)c(CNCCN4CCOCC4)cc23)cc1 | -0.15 | ·
CC(C)C(=O)Nc1cccc(C(=O)NCc2ccc3c(c2)OCO3)c1 | 0.7 | ·
NC(N)=NS(=O)(=O)c1ccc(NC(=O)c2ccco2)cc1 | -1.8 | -0.325
Cc1nc2nc(C(F)(F)F)[nH]n2c(=O)c1Cc1ccccc1 | -0.45 | 0.545
CCOC(=O)C1=C(N)Oc2cc(C)oc(=O)c2C1c1ccccc1F (centres undefined) | -0.6 | ·
Cn1c(C(=O)NCCC2=CCCCC2)cc2oc3ccccc3c21 | 0.45 | 1.92
C=CCn1c(COc2cccc(C)c2)nnc1SCC(=O)NC(C)(C#N)C(C)C (centres undefined) | -1 | ·
Cc1cccc2nc(CSc3nc4cc([N+](=O)[O-])ccc4o3)c(Br)n12 | · | -1.5
COc1c(C(=O)NCC(=O)OC(C)(C)C)cnc2c1c(C)nn2C | · | -0.505
N#CC1=C(N)Oc2n[nH]c(-c3ccccc3)c2C1c1ccccc1OC(=O)N1CCOCC1 (centres undefined) | · | -1.79
Cc1c(C)c(C)c(CN2CCCC2)c(C)c1C | -0.1 | 0.215
Cc1sc2c(c1C)c(=O)nc1n2Cc2ccccc2-1 | 2.85 | ·
NC(=O)c1c(/N=C/c2cc(Br)ccc2O)sc2c1CCCC2 | 0.2 | 0.26
O=c1[nH]c(SC/C=C/c2ccccc2)nc2sc3c(c12)CCC3 | -0.65 | -1.52
O=C(O)C(O)(c1ccccc1)C1CCCCC1 (centres undefined) | 0.2 | -0.015
O=C(c1ccc(F)cc1F)C1CCN(C(=O)c2cccs2)CC1 | 1.75 | 0.25
O=C(CCCOc1ccccc1)Nc1nccs1 | -0.8 | ·
COC(=O)C1=C(C)OC(N)=C(C#N)C1c1ccccc1C (centres undefined) | -1.3 | 1.39
CC(C)(C)c1ccc(-c2nc3sc4c(c3c(=O)o2)CCC4)cc1 | · | 0.44
FC(F)(F)c1cccc(OCCNc2nc3ccccc3c3nc(-c4cccnc4)nn23)c1 | 0.25 | 0.03
Cc1nnc(SCc2ccccc2)nc1/C=C/Nc1ccc(Cl)cc1 | · | 27.1
O=C(Nc1ccccc1)c1ccc2c(c1)OCCCO2 | 0.2 | 0.98
Cc1c(-c2ccccc2)nnn1-c1cccc(Cl)c1C#N | -0.7 | 0.38
S=c1[nH]c(=S)c2cnn(-c3ccccc3)c2[nH]1 | -0.1 | -0.75
COC(=O)C1=C(CN2CCCCC2)NC(=O)NC1c1ccccc1Cl (centres undefined) | -0.5 | ·
COc1cc(/C=C/C(=O)/C=C/c2ccc(N(C)C)cc2)cc(OC)c1OC | 1.25 | 2.31
CCc1ccc2occ(CC(=O)Nc3sc4c(c3C(=O)OC)CCCC4)c2c1 | -0.8 | -0.195
CN(c1ncc(C(F)(F)F)cc1Cl)n1cc(C#N)c2ccccc2c1=O | · | 0.1
CCc1ccc(NC(=O)CN(C2=NC3CS(=O)(=O)CC3S2)c2ccc(CC)cc2)cc1 (centres undefined) | 0.75 | -1.69
Cc1ccc[n+](Cc2ccccc2)c1 | -0.6 | -0.085
OCCN(Cc1ccccc1)Cc1ccc(C(F)(F)F)cc1 | -0.55 | -0.155
CC(C(=O)c1ccc2ccccc2c1)N1CCCCC1 (centres undefined) | -0.5 | ·
NNC(=S)NCc1ccccc1 | -1.1 | ·
CCOc1ccc(/C=C2\NC(=S)NC2=O)cc1OC | -0.15 | -1.82
FC(F)(F)c1cccc(NCn2c(=S)oc3ccc(Cl)cc32)c1 | 0.05 | 0.7
Cc1cccc(NC(=S)N(CCCNC2=CC(=O)CC(C)(C)C2)C2CCCCC2)c1 | 0.2 | -0.44
O=C(NCCCn1ccnc1)c1cc(Cl)cc(Cl)c1 | 0.65 | 0.34
COc1ccccc1NC(=O)Cn1cnc2sc(C(=O)NCCc3ccc(OC)c(OC)c3)c(C)c2c1=O | · | -0.46
Cc1ccc(SC(C)C(=O)NC(C)(C)C)cc1 (centres undefined) | -1 | 0.085
COC(=O)c1cccc(NC(N)=S)c1 | 1.5 | -0.49
CCc1ccc(Nc2nnc(SCC(=O)NC(=O)c3cccn3C)s2)cc1 | -0.55 | ·
Clc1ccc(-c2nnsc2Cl)cc1 | 0.3 | -0.375
CN(C)CCNc1cc(-c2cccs2)nc2ccccc12 | -0.05 | 12.4
CCSc1oc(-c2cccs2)nc1S(=O)(=O)c1ccccc1 | -0.75 | 38.7
O=C(Nc1ccc(F)cc1F)N1CCN(C(=O)c2ccc3cc[nH]c3c2)CC1 | · | 0.105
CCNC(=S)NCCc1ccncc1 | -1.65 | -0.19
S=c1[nH][nH]nc1-c1cccc(Cl)c1 | -0.4 | 0.655
CC(C)CC(=O)Nc1ccc(NC(=O)CC(C)C)cc1 | -0.65 | -0.72
O=c1cc(O)c2sc3nc(-c4cccs4)cc(C(F)(F)F)c3c2[nH]1 | -0.25 | -1.29
CCCCn1c(=O)c(C(=O)NC(C)c2ccccc2)c(O)c2ccccc21 (centres undefined) | -0.5 | 2.29
COC(=O)CCC1(CCC(=O)OC)C(=O)CC(C)(C)CC1=O | · | -0.085
NNC(=O)C(c1ccccc1)P(=O)(c1ccccc1)c1ccccc1 (centres undefined) | · | -0.115
CCCn1c(-c2ccc(OC)cc2)nc2ccccc21 | -0.05 | 2.59
CCCN1C2=NCCN2c2ccccc21 | · | -0.115
CN=C(Nc1cc(C)nn1-c1ccccc1)c1cccs1 | -0.45 | -0.39
CCOC(=O)CSc1nnc(-c2ccccc2)c(=O)[nH]1 | · | -0.03
COc1ccc(N2CCN(C(=O)c3oc4ccc(Br)cc4c3C)CC2)cc1 | -0.65 | ·
COc1ccc(NC(=O)CSc2nc3ccccc3[nH]c2=O)cc1 | 0.65 | 0.255
Cc1cc(Nc2ccccc2C(=O)O)ccc1Cl | · | 0.005
O=C(NCc1ccc2c(c1)OCO2)c1cc2nc(-c3ccc4c(c3)OCO4)cc(C(F)(F)F)n2n1 | · | 0.68

# The list goes on:
Compound | AID504770 | CapD inh
O=C(CN(c1ccc(F)cc1)S(=O)(=O)c1ccccc1)Nc1ccc(S(=O)(=O)N2CCOCC2)cc1 | · | -0.41
Cn1cc(S(=O)(=O)N2CCCC2)cc1C(=O)N1CCCc2ccccc21 | -0.15 | -0.705
COc1ccc(-c2nnc(SCC(=O)Nc3cccc(C)c3C)nc2-c2ccc(OC)cc2)cc1 | · | -0.09
COC(=O)[C@H](C)NC(=O)Cc1cccc2ccccc12 | -1.2 | ·
CC(C)Oc1cc(NC(=O)c2ccc(Cl)c(Cl)c2)c(Cl)cc1Cl | · | -0.17
O=C(Nc1ccc2[nH]c(=O)[nH]c2c1)c1c(F)c(F)c(F)c(F)c1F | 0.25 | 0.125
Cc1ccc(/C=C2\SC(=S)N(C(CCC(=O)O)C(=O)O)C2=O)cc1 (centres undefined) | -0.25 | -1.57
CCN(CC)c1ccc2cc(-c3csc(C)n3)c(=O)oc2c1 | 0.4 | ·
Cc1oc(-c2ccccc2)nc1C(=O)O | -0.5 | ·
O=S(=O)(NC1CCCCC1NCc1ccco1)c1ccccc1 (centres undefined) | 1.3 | 0.6
CCC(=O)Nc1ccc(-c2ccc(NC(=O)CC)c(OC)c2)cc1OC | 0.15 | 1.8
COc1ccc(N2CC(NC(=O)NCc3ccc4c(c3)OCO4)CC2=O)cc1OC (centres undefined) | 1.8 | ·
CCc1nnc(NC(=O)CCCSc2ccccc2)s1 | -0.35 | ·
CC12CCOC1N(c1ccccc1)c1ccccc12 (centres undefined) | -0.5 | -0.005
Cc1ccccc1N1CCN(S(=O)(=O)c2cc(C(F)(F)F)cc(C(F)(F)F)c2)CC1 | · | 0.445
O=C1NC(=O)C2(CCCCC2)N1 | · | 0.255
COC(=O)c1cc2c(=O)n3ccccc3nc2n(CCN2CCOCC2)c1=N | 0.4 | ·
CCOC(=O)C1CCN(Cc2cc(=O)n3c(-c4ccccc4)csc3n2)CC1 | -0.95 | ·
Cc1cc(C)nc(C#N)n1 | -1.25 | 0.135
COc1ccc(C(c2cc3c(cc2O)OCO3)N2CCOCC2)cc1 (centres undefined) | -0.7 | -2.74
COc1ccc2oc(-c3cccc(F)c3)cc(=O)c2c1 | -0.4 | ·
COC(=O)c1cccc(CSc2nnc(C(F)(F)F)n2C)c1 | · | -0.32
CCOC(=O)CSc1nc(=O)cc(N)n1Cc1ccc(F)cc1 | -0.2 | 1.32
CN1CCCN(C(=O)Cc2c(Cl)cccc2Cl)c2nc3ccccc3nc21 | -2.35 | ·
Cc1ccc2nc(SCC(=O)Nc3ccccc3)[nH]c2c1 | 1 | -0.455
CCN1CCN(c2ccc(N=Cc3ccc(N(C)C)cc3)cc2)CC1 | 1.9 | ·
CCCCn1c(CNc2ccc(C)cc2)nnc1SCC(=O)OC | -1.25 | ·
CN(C(=O)CSc1nnc2c3ccccc3n(C)c2n1)C1CCCCC1 | -0.35 | ·
Cc1cc2c(N=NC(=O)Nc3ccccc3)c(O)[nH]c2cc1Br | 1.8 | -0.635
CC(=O)Oc1ccc(-c2ccc(C(=O)NCCCN3CCCC3=O)cc2)cc1 | -0.2 | 0.165
CCOc1ccc(CC2(CCc3ccncc3)C(=O)NC(=O)NC2=O)cc1 | -1.2 | ·
O=C(O)c1ccccc1C(=O)Nc1ccc(Br)cc1 | · | 0.535
O=C(Cc1nn[nH]n1)Nc1ccc(F)cc1 | 0.1 | 0.61
CC(C)(C)C1CCc2c(sc(N)c2C(N)=O)C1 (centres undefined) | -0.3 | 18.4
O=C(COC(=O)c1cc(Br)ccc1O)c1ccc(F)cc1 | 0.35 | 0.415
CCOC(=O)Cc1nnc2c3ccccc3n(C)c2n1 | 0.7 | ·
Cc1ccc2oc(-c3ccccc3C(=O)O)cc(=O)c2c1 | -0.4 | 7.91
